RanGTP-Imp inh = disruptors of Ran-importin-beta complex formation – biochemical, FRET, CFP-Ran, YFP-importin-beta, homogeneous, primary screen; AID 2216; inhibition, % (no concentration beside the values); hit rate 1.1% among 300,000; cell-free CFP-Ran/YFP-importin-beta FRET ratio;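 active = most replicates above 15%; inconclusive = exactly half above 15%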;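 also: 0% = DMSO wells and 100% = Ran loaded with GDP instead of GTP; wells of about 40 µL received 100 nL stock; the first replicate is given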
FGF22 binding = shifts melting point of recombinant human FGF22 | AID 651658 | calls only at 9.99 µM | recombinant FGF22 thermal shift, SYPRO orange fluorescence; percent of sucrose octasulfate shift, DMSO zero | hit rate 1.5% among 340,000 | Q9HCT0;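 active = melting point raised past a set limit in the mean and every replicate; inconclusive = no clear call; three in four hits are not shown here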
Target sequence (Q9HCT0 whole entry, looked up): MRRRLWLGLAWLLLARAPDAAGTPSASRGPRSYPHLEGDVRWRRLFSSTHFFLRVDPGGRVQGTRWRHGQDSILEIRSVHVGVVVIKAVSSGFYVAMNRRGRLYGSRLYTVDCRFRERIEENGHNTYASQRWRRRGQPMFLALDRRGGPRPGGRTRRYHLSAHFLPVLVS
Vif TR-FRET = HIV-1 Vif–A3G interaction blockers – biochemical, TR-FRET, GST-Vif 1-94, biotin-A3G peptide, dose response retest, primary screen (AID 1117319); TR-FRET GST-Vif / biotin-A3G peptide binding; higher % means a stronger effect; test concentration not given here; strong numbers were not always called active; hit rate 0.57% among 260,000; inhibition, %; hits with a dose series show IC50 in µM;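 active = above the screen mean plus three standard deviations and confirmed in dose response; inconclusive = results disagree or hit not tested in dose response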;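 also: Vif residues 1-94 fused to GST binding biotinylated APOBEC3G peptide 110-148; 0% = full assay without inhibitor and 100% = GST in place of GST-Vif; retest series ran down from 100 µM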
HNF4A DNA FP = change in binding of human HNF4 alpha to DNA; P41235; HNF4a-FITC DNA binding, fluorescence polarization, 1 h; hit rate 0.3% among 360,000; activity change, % at 10 µM; in the data active = activity change above about 30%, passing the limit was not always enough;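 also: controls were the assay level and a saturating level of protein; the project sought stronger binding though the title names inhibitors; some compounds called inactive have numbers as strong as hits; positive values seem to mean higher polarization but the record does not say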
Target sequence (P41235 whole entry, looked up): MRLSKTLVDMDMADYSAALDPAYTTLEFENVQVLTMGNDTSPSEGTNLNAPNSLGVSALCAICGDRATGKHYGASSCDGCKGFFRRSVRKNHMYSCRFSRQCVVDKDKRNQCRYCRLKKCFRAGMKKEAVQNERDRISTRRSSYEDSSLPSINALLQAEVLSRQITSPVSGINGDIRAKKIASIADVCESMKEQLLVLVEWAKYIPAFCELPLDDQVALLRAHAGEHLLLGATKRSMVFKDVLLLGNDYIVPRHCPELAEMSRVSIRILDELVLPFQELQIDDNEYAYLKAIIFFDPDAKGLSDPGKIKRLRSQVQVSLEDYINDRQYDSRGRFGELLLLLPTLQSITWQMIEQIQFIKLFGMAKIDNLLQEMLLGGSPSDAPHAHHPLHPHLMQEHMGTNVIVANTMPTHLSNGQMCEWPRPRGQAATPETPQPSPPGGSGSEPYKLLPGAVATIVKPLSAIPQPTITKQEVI
UCH37 DUB inh = inhibitors of human deubiquitinating enzyme UCH37; purified proteasome/UCH37, Ub-AMC cleavage fluorescence; hit rate 0.33% among 330,000; Q9Y5K5; inhibition, % (test concentration not listed);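 active = mean of two replicates above 20%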;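 also: 0% = compound-free wells with enzyme and 100% = wells lacking proteasome; stock transfer was 100 nL into about 20 µL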
Target sequence (Q9Y5K5 whole entry, looked up): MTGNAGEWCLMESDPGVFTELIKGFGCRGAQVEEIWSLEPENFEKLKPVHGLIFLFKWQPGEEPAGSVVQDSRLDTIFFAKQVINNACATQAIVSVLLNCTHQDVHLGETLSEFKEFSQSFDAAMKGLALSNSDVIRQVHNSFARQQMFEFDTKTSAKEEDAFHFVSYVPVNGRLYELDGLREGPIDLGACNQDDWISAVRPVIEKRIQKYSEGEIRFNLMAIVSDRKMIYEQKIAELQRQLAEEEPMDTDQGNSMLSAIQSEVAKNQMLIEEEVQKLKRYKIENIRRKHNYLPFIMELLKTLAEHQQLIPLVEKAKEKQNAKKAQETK
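Material: human UCH37 enzyme supplied as purified proteasome complex. Measure: % inhibition of Ub-AMC cleavage fluorescence. Medium: pH 7.4 Tris-HCl (50 mM) with ovalbumin, ATP-MgCl2, DTT. Times: 30 min preincubation with enzyme, 25 min cleavage at room temperature. Detection: AMC fluorescence intensity at 355/460 nm.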
E coli growth = inhibitors of Escherichia coli growth. OD600, 23 h; stronger effect = lower value. hit rate 0.21% among 330,000. OD600 absorbance (concentration not given with the values);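 active = OD600 absorbance below the run mean of sample wells minus 3.6 SD, in any replicate, cut at about 0.56 in these data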;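 also: stock transfer was 300 nL into about 60 µL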
AF4-AF9 inh = MLL-AF4/AF9 protein interaction inhibition; inhibition, % at 10 µM; hit rate 0.47% among 350,000; AlphaScreen, biotin-AF4 peptide binding to FLAG-AF9;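 active = every replicate reaching a set inhibition limit, whatever the replicate mean, cut at about 25% in these data; inconclusive = mean inhibition reaches that limit but some replicates miss it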;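 also: 0% = plate neutral control median and 100% = total signal loss; the record names both 10 and 1 µM as test concentration; the first replicate is given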
The depositor's hits bear a star; i = inactive; ? = inconclusive; . = not tested or not shown.

Vif TR-FRET,E coli growth,AF4-AF9 inh,HNF4A DNA FP,UCH37 DUB inh,RanGTP-Imp inh,FGF22 binding,Molecule
.,0.64,.,-8.2,-27,-11,.,Cc1ccc(C2=CC(c3ccc(C)cc3)n3ncnc3N2)cc1 (stereo unspecified)
-7%,0.69,-3.1,-3.5,5.1,.,i,C=CCNC(=O)Nc1ccc(F)c(Cl)c1
.,0.68,-2.7,4.9,-0.3,0.1,i,O=C(Cc1cccc2ccccc12)NC(=S)Nc1cccc(C(=O)O)c1
.,0.65,0.5,1.8,0.8,2.2,i,COc1cccc(CNC(=O)Cn2c(=O)n(CCC(=O)N3CCCCC3)c(=O)c3sccc32)c1
1%,0.74,-1.4,1.8,2.2,1.6,i,S=C(NCCc1ccccc1)NC1CCC(NC(=S)NCCc2ccccc2)CC1 (stereo unspecified)
79%,0.67,.,3.5,0.1,0.4,.,O=S1(=O)CCC(N2CCOCC2)C1 (stereo unspecified)
-3%,0.67,5.1,-1.4,1.0,0.3,i,C=CCOc1ccc(CNc2ccc(NC(=O)CC(C)C)cc2)cc1OC
0%,0.77,.,2.7,2.0,0.3,.,COc1cc(C(=O)N2CCC(N3CCCCCC3)CC2)cc(OC)c1OC
70%,0.7,-2.7,0.6,5.0,2.5,i,O=C(NCc1ccc(F)cc1)C1CCC(CNc2c(N3CCCCC3)c(=O)c2=O)CC1 (stereo unspecified)
-15%,0.66,0.4,-0.3,2.7,3.1,i,COc1ccc(-n2nc(C(=O)NCC(=O)N3CCN(c4ccccc4OC)CC3)c3ccccc3c2=O)cc1OC
9%,0.71,.,2.3,-30,0.4,.,Cc1nn(-c2ccccc2)c2nc(-c3ccncc3)cc(C(=O)NCc3ccco3)c12
82%,0.66,5.7,-2.1,2.1,2.2,i,COc1cc(OC)c2ccc(=O)oc2c1C(CCN1CCCC(C)C1)c1ccc2c(c1)OCO2 (stereo unspecified)
.,0.69,-21,3.3,-443,4.2,i,COC(=O)C1=CN(c2cc(C)cc(C)c2)C=C(C(=O)OC)C1c1cccc(F)c1
-11%,0.7,0.7,-2.4,-1.4,3.6,i,S=c1[nH]nc(CN2CCCCC2)n1-c1ccc(Cl)cc1
.,0.7,3.9,2.9,2.1,-3.4,i,Cc1ncc(CO)c2c1Oc1nc(-c3ccccc3)nc(SCC(=O)N3CCCCC3)c1C2
.,0.69,1.2,-4.0,-89,.,i,COc1ccc2c(COC(=O)c3ccc(C)c(S(=O)(=O)N4CCOCC4)c3)cc(=O)oc2c1
17%,0.68,.,-1.3,1.0,-0.3,.,O=C(Cn1nnc(-c2ccccc2NC(=O)C2CC2)n1)NC1CCCCC1
-8%,0.72,4.7,3.1,-8.8,1.5,i,Cc1ccc2cc(CN(C(=O)c3ccco3)c3cccc(C)c3C)c(=O)[nH]c2c1
.,0.66,1.5,-2.0,1.0,.,i,Cc1c(Cl)cnc(NC(=O)COC(=O)[C@@H](NC(=O)c2ccco2)C(C)C)c1Cl
7%,0.71,.,2.0,0.7,-1.3,.,CC(CNC(=O)c1ccc(-c2ccccc2)cc1)CN(C)C (stereo unspecified)
?,0.67,.,-1.2,3.2,3.3,.,COc1ccc(CN(C(=O)c2ccccc2OC)C2CCS(=O)(=O)C2)cc1 (stereo unspecified)
6%,0.68,-0.8,-3.5,1.8,1.1,i,CC(NC(=O)CC12CC3CC(CC(C3)C1)C2)C(=O)O (stereo unspecified)
21%,0.7,.,1.4,-0.3,2.1,.,COc1ccc(NC(=O)CCSCCC(=O)Nc2ccc(OC)cc2OC)c(OC)c1
7%,0.76,.,-0.6,1.1,?,.,Cn1nc(C(F)(F)F)c2cc(C(=O)Nc3ccc(Cl)cc3)sc21
3%,0.66,.,4.0,3.3,0.8,.,COc1ccc(C)cc1NC(=O)c1ccc2c(c1)OCO2
.,.,-1.3,0.0,2.6,4.4,i,CC(C)(Cc1ccccc1)/[N+]([O-])=C\c1ccc(C(F)(F)F)cc1
-4%,0.7,2.6,0.2,2.7,1.5,i,Nc1ccc(S(=O)(=O)NCC(=O)OCCOc2ccccc2)cc1[N+](=O)[O-]
-3%,0.73,.,-2.0,-0.1,-0.7,.,CCN(CC)S(=O)(=O)c1cccc(-c2nnc(SCCCC(=O)c3ccccc3)o2)c1
4%,.,-1.8,3.4,.,.,i,Cc1nc(C(=O)O)cc([N+](=O)[O-])c1C
-2%,0.7,.,0.8,0.5,2.5,.,COc1ccc(C2=NOC(C(=O)NC3CCCCC3)C2)cc1OC (stereo unspecified)
.,.,0.5,1.6,-0.9,.,i,C[C@H]1COC(=O)[C@H](Cc2ccc(F)cc2)C/C=C\C[C@H](CC(=O)N(CCO)Cc2ccccc2)C(=O)N1
.,0.69,-1.8,-1.8,3.1,2.5,i,Cc1ccc(NC(=O)CNC(=O)c2ccc(C)o2)cc1
-4%,.,1.4,-2.6,.,.,.,Cc1cccc(N2CCN(C(=O)COc3noc4nc(C)cc(C)c34)CC2C)c1 (stereo unspecified)
-10%,0.7,-0.2,-1.1,9.6,-0.6,i,O=C1C(=O)N(CCN2CCOCC2)C(c2cccc(Cl)c2)/C1=C(\O)c1ccc2c(c1)OCCO2 (stereo unspecified)
-2%,0.7,.,-4.6,1.5,-3.0,.,CCC(=O)N1c2ccc(S(=O)(=O)CCC(=O)NCc3cccs3)cc2CC1C (stereo unspecified)
?,0.68,.,0.6,2.3,-0.2,.,C(=C\CSc1ncn[nH]1)/CSc1ncn[nH]1
-8%,0.7,-0.9,17,3.4,-1.4,.,CCOC(=O)c1nn(-c2ccc(F)cc2)c(=O)cc1OCC(=O)Nc1ccc(OCC)cc1
.,.,4.1,0.1,.,.,i,COCCNC(=O)C1(C)CCN(C(=O)c2cc(C)nn2C(C)(C)C)C1 (stereo unspecified)
4.5µM*,0.72,.,-6.4,16,.,.,O=[N+]([O-])c1cc2oc3c(c2c(C=NCc2ccncc2)c1O)CCCC3
5%,0.66,1.0,0.8,1.9,7.4,i,COc1cccc(-c2nn(-c3ccccc3)cc2CN(C)Cc2ccno2)c1

Exported as comma-separated lines: two of the compounds above
SMILES,Vif TR-FRET,E coli growth,AF4-AF9 inh,HNF4A DNA FP,UCH37 DUB inh,RanGTP-Imp inh,FGF22 binding
Cc1ccc(NC(=O)CNC(=O)c2ccc(C)o2)cc1,.,0.69,-1.8,-1.8,3.1,2.5,i
Cc1cccc(N2CCN(C(=O)COc3noc4nc(C)cc(C)c34)CC2C)c1 (stereo unspecified),-4%,.,1.4,-2.6,.,.,.

Next section.
Vif TR-FRET,E coli growth,AF4-AF9 inh,HNF4A DNA FP,UCH37 DUB inh,RanGTP-Imp inh,FGF22 binding,Molecule
.,0.7,-6.0,-2.5,2.0,0.7,i,Cc1ccnc(NC(=O)Cn2c(=O)oc3cc(S(=O)(=O)N4CCCC4)ccc32)c1
-5%,0.64,13,4.4,63*,.,i,CC(Sc1nnc(-c2cccnc2)n1N)C(=O)NCCC1=CCCCC1 (stereo unspecified)
.,.,7.5,-0.8,.,.,i,CC(=O)Oc1ccc(Cn2c(C)c(C(=O)NCCC#N)sc2=O)cc1
-4%,0.66,-0.6,-0.8,-1.5,5.8,i,CCc1nn(CCCC(=O)N2CCC(C)CC2)c(=O)c2cc3occc3n12
3%,0.68,2.1,-1.0,7.6,-4.0,i,COc1ccc(C(=O)CC(=O)C(=O)Nc2cc(C)ccc2C)cc1
7%,0.71,.,-1.1,5.3,4.3,.,Cn1c(SCC(=O)c2ccc(F)cc2)nc2cccnc21
-6%,0.66,-1.6,-0.3,4.9,1.6,i,CCOC(=O)C1CCN(C(=O)c2ccc3c(c2)C(=O)N(c2ccccc2C)C3=O)CC1
.,.,-1.7,-1.2,.,.,i,Cc1cccc(C)c1-n1nnnc1C1(C)CCC(=O)N1Cc1cccnc1 (stereo unspecified)
.,0.71,-11,-0.5,4.5,-2.0,i,CC(CNC(=O)CCS(=O)(=O)c1ccc2c(c1)oc(=O)n2C)c1ccccc1 (stereo unspecified)
-1%,0.68,5.3,1.7,3.4,.,i,CC(Sc1nnc(-c2cccnc2)n1N)C(=O)Nc1ccc2c(c1)OCCO2 (stereo unspecified)
.,0.63,-4.9,-1.6,0.5,0.3,i,Cc1c(Cl)cccc1NC(=O)CCN1CCN(CCO)CC1
-2%,.,1.9,-0.7,.,0.3,i,S=c1[nH]nc(COc2ccccc2)n1/N=C/c1cccc(Br)c1
2%,0.67,12,1.3,1.9,4.3,i,C=CCNc1nc(-c2ccc([N+](=O)[O-])cc2)cs1
.,0.68,-19,2.9,3.2,-3.5,i,O=c1cc(-c2ccccc2)oc2cc(O)cc(O)c12
-4%,0.67,1.1,4.1,1.6,.,i,O=c1[nH]c(=O)n(C2OC(CO)C(O)C2O)cc1N1CCOCC1 (stereo unspecified)
3%,0.66,.,1.1,-0.8,2.4,.,Cc1cccn2c(=O)c3cc(C#N)c(=O)n(-c4c(C)n(C)n(-c5ccccc5)c4=O)c3nc12
17%,.,.,5.5,.,-3.1,.,N#CC1=C(c2ccccc2)/C(=C/c2ccccc2)OC1=O
-6%,0.7,3.0,3.2,1.1,.,i,O=C(Nc1nccs1)[C@@H]1CCCN1S(=O)(=O)c1ccccc1F
5%,0.64,3.3,-2.0,1.9,0.4,i,CCCCNC(=O)c1c(CSc2ccccc2)noc1C(=O)NCc1ccccc1
-1%,0.77,.,0.1,1.3,.,.,CCOC(=O)N1CCC(NC(=O)C2CCC(CNS(=O)(=O)c3ccc(OC)cc3)CC2)CC1 (stereo unspecified)
2%,0.67,-1.6,2.6,2.8,0.5,i,O=C(CSc1nnnn1-c1ccc(O)cc1)c1ccc(F)cc1
.,0.71,.,-1.5,1.9,0.5,.,COc1ccc(NC(=O)COC(=O)C2CCC(C(C)(C)C)CC2)c([N+](=O)[O-])c1 (stereo unspecified)
.,0.7,0.6,3.3,5.2,.,.,CC1=Nc2ccccc2/C1=C/c1c(N)n2c(S(=O)(=O)C(C)C)nsc2nc1=O
-9%,0.68,.,30*,2.8,-0.8,.,Cc1cc(=O)c2ccccc2n1CC(=O)NCc1ccccc1
.,.,1.0,1.0,.,.,i,O=C(NCC(O)c1nc2ccccc2[nH]1)c1cc2ccccc2[nH]1 (stereo unspecified)

Some of these compounds in order of formula weight, high to low:
Vif TR-FRET,E coli growth,AF4-AF9 inh,HNF4A DNA FP,UCH37 DUB inh,RanGTP-Imp inh,FGF22 binding,Molecule
-6%,0.66,-1.6,-0.3,4.9,1.6,i,CCOC(=O)C1CCN(C(=O)c2ccc3c(c2)C(=O)N(c2ccccc2C)C3=O)CC1
.,0.7,0.6,3.3,5.2,.,.,CC1=Nc2ccccc2/C1=C/c1c(N)n2c(S(=O)(=O)C(C)C)nsc2nc1=O
4.5µM*,0.72,.,-6.4,16,.,.,O=[N+]([O-])c1cc2oc3c(c2c(C=NCc2ccncc2)c1O)CCCC3

This is a subset. The share of hits here may be higher or lower than overall.
